Screening results from PubChem.
KCNQ2 enhance = potentiators of rat KCNQ2 potassium channel. 310,000 tested, 0.54% active. O88943. CHO-K1 KCNQ2, FluxOR thallium flux fluorescence; stronger effect = higher value. B-score at 10 µM. AID 2239;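 active = fluorescence ratio B-score at least 3 SD of library B-scores, with initial fluorescence B-score within 3 SD, cut at about 5.3 in these data; same plate scores as AID 2156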;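 also: B-score of peak minus minimum over baseline fluorescence ratio after K+ and Tl+ stimulus; positive B-score means potentiation of KCNQ2 with more thallium influx and brighter signal; only the inactives scoring about 0 or higher are listed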
Target sequence (O88943 whole entry, looked up): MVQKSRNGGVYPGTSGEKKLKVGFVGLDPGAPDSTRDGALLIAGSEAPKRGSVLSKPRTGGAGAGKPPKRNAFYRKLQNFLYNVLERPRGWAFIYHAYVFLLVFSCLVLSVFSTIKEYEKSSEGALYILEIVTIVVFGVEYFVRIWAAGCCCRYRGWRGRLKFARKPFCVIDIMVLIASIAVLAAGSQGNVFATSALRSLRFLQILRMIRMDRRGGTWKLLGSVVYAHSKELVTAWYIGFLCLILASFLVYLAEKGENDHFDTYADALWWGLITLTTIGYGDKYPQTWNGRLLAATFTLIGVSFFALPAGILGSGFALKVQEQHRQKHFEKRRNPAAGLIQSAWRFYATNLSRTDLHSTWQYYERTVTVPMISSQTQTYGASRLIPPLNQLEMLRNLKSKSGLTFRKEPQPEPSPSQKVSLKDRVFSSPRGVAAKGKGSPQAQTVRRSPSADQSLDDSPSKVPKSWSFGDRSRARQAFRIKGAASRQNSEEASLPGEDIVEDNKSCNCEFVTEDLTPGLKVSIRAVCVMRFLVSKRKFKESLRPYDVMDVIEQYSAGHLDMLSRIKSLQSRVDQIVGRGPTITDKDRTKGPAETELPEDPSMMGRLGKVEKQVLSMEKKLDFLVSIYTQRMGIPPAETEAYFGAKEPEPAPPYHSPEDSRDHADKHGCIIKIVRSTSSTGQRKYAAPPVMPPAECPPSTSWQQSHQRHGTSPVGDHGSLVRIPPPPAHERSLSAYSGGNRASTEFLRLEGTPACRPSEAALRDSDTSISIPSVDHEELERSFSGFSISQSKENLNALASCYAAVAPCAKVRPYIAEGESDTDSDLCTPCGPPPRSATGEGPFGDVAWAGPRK
KCNQ2 enhance baseline = recorded beside KCNQ2 enhance, whose call it bears; B-score; compound at 10 µM; measured here: initial fluorescence intensity artifact check;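 brightness before thallium and not channel activity; 0 = typical well and far values either way flag optical interference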
The depositor's hits bear a star. A portion of the library. The share of hits here may be higher or lower than overall.

item | canonical_smiles | KCNQ2 enhance | KCNQ2 enhance baseline
1 | O=C(Nc1ccc(Br)cc1)c1cccc(N2C(=O)C3C4C=CC(C4)C3C2=O)c1 (stereo not given) | 0.44 | 1.8
2 | CCOC(=O)C1CCN(C(=O)c2cccc(N3C(=O)NC4CC3(C)Oc3ccc(C)cc34)c2)CC1 (stereo not given) | 0.24 | 0.07
3 | CCCc1cc(=O)[nH]c2nnc(SCC(=O)Nc3nccs3)n12 | 0.58 | -0.44
4 | Cc1c(Br)ccc(NC(=O)c2ccccc2[N+](=O)[O-])c1C | 1.7 | -0.65
5 | COc1ccccc1-n1c(CCn2nc(C)c(Br)c2C)n[nH]c1=S | 0.86 | 0.41
6 | COc1cc2[nH]c(-c3cccc(F)c3)cc(=O)c2cc1OC | 0.19 | 1.7
7 | COc1ccc(/C(C)=N/OCC(=O)N=Nc2c(O)[nH]c3ccc(Br)cc23)cc1 | 1 | 0.68
8 | Cc1csc(SCC(=O)Nc2ccc(Cl)cn2)n1 | 0.39 | -0.41
9 | COc1ccc(OC)c(S(=O)(=O)N2CCC(C(=O)Nc3cccc(C)c3C)CC2)c1 | 0.67 | 2.6
10 | S=C(NCC1CCCO1)Nc1ccc(Cl)cc1Cl (stereo not given) | 1.4 | -0.03
11 | N#Cc1nc(-c2ccccc2)oc1N1CCN(C(=O)c2ccco2)CC1 | 1.3 | -0.29
12 | COc1ccc(CNC(=O)C(C)Sc2nc3ccccc3c(=O)n2CCCN2CCOCC2)cc1 (stereo not given) | 0.84 | -1.8
13 | COc1ccc(/C=C(/NC(=O)c2ccccc2Cl)C(=O)NCCCC(=O)O)cc1 | 0.04 | 3.6
14 | COc1ccc(C(=O)OC/C(O)=C(\C#N)c2nc3ccccc3[nH]2)cc1S(=O)(=O)N1CCOCC1 | 0.37 | -0.02
15 | CSc1nccn1CC(=O)Nc1ccc(F)cc1 | 0.96 | 1.7
16 | O=C(Nc1ccc(Cl)cc1)ON=C1CCCC1 | 0.98 | 0.07
17 | COc1cc(OC)cc(C(=O)N2CCN(Cc3ccccc3Br)CC2)c1 | 1.4 | -0.06
18 | COc1ccc(NC(=O)c2cc(-c3ccc(C)cc3O)n[nH]2)c(OC)c1 | 0.19 | -1.1
19 | CC(NS(=O)(=O)c1cc2c3c(c1)CCC(=O)N3CCC2)c1ccccc1 (stereo not given) | 1.2 | -0.55
20 | COc1ccc2cc(S(=O)(=O)N3CCCC3)ccc2c1 | 0.97 | 0.11
21 | Cc1ccc(Nc2nc(N)nc(CSC(=S)N3CCN(c4ccccc4)CC3)n2)cc1 | 0.12 | 1.1
22 | NS(=O)(=O)c1ccc(CCNC(=O)c2ccc(NS(=O)(=O)c3ccc4[nH]c(=O)[nH]c4c3)cc2)cc1 | 0.04 | 0.42
23 | CCCCC(=O)NCCc1cc2c(OC)ccc(OC)c2[nH]c1=O | 0.64 | -0.74
24 | CC(C)=C(NC(=O)c1ccccc1)C(=O)N/N=C/c1ccc(O)cc1 | 0.17 | 1.7
25 | O=C(COC(=O)c1ccco1)c1ccccc1 | 0.8 | 0.23
26 | O=C(CCN1C(=O)c2ccccc2C1=O)Nc1ccccc1C(F)(F)F | 1.4 | 0.51
27 | CCOC(=O)Cc1csc(NC(=S)NC(=O)C(C)(C)C)n1 | 2.3 | 0.11
28 | COc1ccc(C(=O)Nc2ccc3c(c2)OCCO3)cc1[N+](=O)[O-] | 1.2 | -0.7
29 | CCOc1ccc(NC(=O)N2CCN(C(=O)c3ccco3)CC2)cc1 | 1.6 | 0.2
30 | Cc1ccc2nsnc2c1NC(=O)c1cccnc1Cl | 1.6 | -0.88
31 | CC1(C)OC(=O)C(=CNCC(=O)NCC(=O)O)C(=O)O1 | 1.9 | -0.16
32 | CNCc1ccccc1OCC(=O)Nc1ccccc1 | 0.16 | 0.55
33 | COc1ccc(NC(=O)N2CCCC2C(=O)NCc2cccs2)cc1 (stereo not given) | 1.8 | 0.73
34 | CCc1ccc(NC(=O)N(CCCN2CCOCC2)Cc2cccs2)cc1 | 1 | -0.03
35 | O=C(NNC(=O)C1CCN(c2ncccn2)CC1)c1ccc(Cl)cc1 | 1.1 | -1.4
36 | CCN(CC)c1c([N+](=O)[O-])c(=O)n(CC)c2ccccc12 | 1.4 | 0.18
37 | CCCc1nnc(NC(=O)c2ccc(N3C(=O)C4C5C=CC(C5)C4C3=O)cc2)s1 (stereo not given) | 0.68 | -1.2
38 | CCOC1OC(=O)C(Cl)=C1Nc1ccc(C)cc1 (stereo not given) | 1.2 | -0.77
39 | Cc1cc2cccc(C)c2nc1SCC(=O)NCC1CCCO1 (stereo not given) | 0.98 | -0.41
40 | CN(CCc1ccccn1)C(=O)CCC1CCCN(C(=O)CN2CCCCCC2)C1 (stereo not given) | 0.93 | -0.21
41 | Cc1ccc(S(=O)(=O)NCC2CCC(C(=O)NCc3ccccn3)CC2)cc1 (stereo not given) | 0.19 | -0.03
42 | O=C(Nc1ccon1)c1ccc(Br)s1 | 0.83 | -0.03
43 | CN1CCN(NC(=O)c2ccc(F)cc2)CC1 | 0.77 | -0.1
44 | Cc1ccc(C(=O)NN2CCOCC2)cc1[N+](=O)[O-] | 0.15 | -1
45 | O=C(Nc1cccc(OCC(=O)N2CCOCC2)c1)c1ccc(C(F)(F)F)cc1 | 1.3 | -0.02
46 | c1ccc(-c2noc(C3CCCCC3)n2)nc1 | 0.11 | 0.46
47 | CC(=C\c1ccccc1)/C=C1/SC(=S)N(C(C(=O)O)C(C)C)C1=O (stereo not given) | 0.1 | -2.1
48 | CCc1ccccc1N(C(=O)CNC(=O)c1ccco1)C(C(=O)NC1CCCC1)c1cccnc1 (stereo not given) | 0.16 | -0.32
49 | O=C(O)c1cnn2c(C(F)F)cc(C(F)F)nc12 | 0.62 | 0.31
50 | COCCN1C(=O)C(=O)/C(=C(/O)c2ccc(S(=O)(=O)N3CCOCC3)cc2)C1c1cccc(OC)c1 (stereo not given) | 0.56 | 0.17
51 | Cc1cccc(/C=N/NC(=O)c2cccc(Cl)c2)n1 | 0.53 | -0.46
52 | COc1cc(NC(=S)NC(=O)c2ccco2)ccc1NC(=O)C(C)C | 0.57 | -1
53 | CCCc1cc(=O)oc2cc(OCc3ccc(C(=O)O)cc3)ccc12 | 1.6 | -0.61
54 | CCc1cccc(NC(=O)CCc2nc(-c3cccs3)no2)c1 | 1.6 | -0.76
55 | COc1ccc(NC(=S)NC(=O)/C=C/c2ccccc2)cc1 | 0.58 | 0.41
56 | CCn1ncc(C(=O)Nc2cccc(Cl)c2)c1C | 0.11 | -0.25
57 | COc1cccc(/C=N/NC(=O)CCn2c3ccccc3c3ccccc32)c1 | 0.06 | -0.47
58 | COc1ccc(OC)c(S(=O)(=O)N2C(C)CCCC2C)c1 (stereo not given) | 0.58 | -1.6
59 | CCOCCCN(C)C1CCN(C(=O)c2oc3ccccc3c2NC(=O)c2ccc([N+](=O)[O-])cc2)CC1 | 1.5 | 1.8
60 | Cc1cc(C)n(CCOc2ccc(Cl)cc2Cl)n1 | 0.03 | -0.01

Later entries:
item | canonical_smiles | KCNQ2 enhance | KCNQ2 enhance baseline
61 | CN(Cc1ccccc1)CC(O)COc1ccc(CNCCc2cccnc2)cc1 (stereo not given) | 1.8 | -0.93
62 | COc1cc(C)c(Cl)c(C)c1S(=O)(=O)NCc1ccc2c(c1)OCO2 | 0.68 | 1.2
63 | CCn1c(CNC(=O)c2cccc(C)c2)nnc1SCC(=O)N1CCOCC1 | 0.15 | 1.3
64 | CCOC(=O)/C=C1\NC(=O)C(C)S1 (stereo not given) | 1.7 | -2.6
65 | Cc1cccc(OCC(=O)Nc2ccncc2)c1C | 1.1 | 0
66 | COC(=O)NC(=S)Nc1ccc(Oc2ccc(Cl)cc2)c(Cl)c1 | 0.05 | 0.38
67 | COc1ccc(N2CCN(C(=O)c3ccc(-n4nc(C)cc4C)cc3)CC2)cc1 | 1.7 | -0.49
68 | CC1c2[nH]c3ccccc3c2C[C@H]2C(=O)N(CCCN(C)C)CC(=O)N12 (stereo not given in full) | 2.2 | 0.02
69 | O=C(CN(Cc1ccccc1)C(=O)CCC(=O)Nc1ccccn1)NCCc1ccccc1 | 1.7 | 0.64
70 | COc1cc(/C=N/O)ccc1OCc1ccc([N+](=O)[O-])cc1 | 0.41 | 3.1
71 | COc1cccc(-c2noc(CCC(=O)Nc3cccnc3)n2)c1 | 0.71 | -0.01
72 | COc1ccccc1/C=C/C(=O)NCC(=O)N=Nc1c(O)[nH]c2ccccc12 | 0.91 | 0.65
73 | CCOC(=O)c1cc(C#N)c(SCC(=O)OC)[nH]c1=O | 0.29 | 0.18
74 | CCCc1cc2c(=O)c(-c3ccc4c(c3)OCCO4)coc2cc1OS(C)(=O)=O | 0.33 | 0.32
75 | Cn1cnnc1SC1CCCCC1NS(=O)(=O)c1ccccc1 (stereo not given) | 0.06 | -2.8
76 | Cc1ccccc1NC(=O)CSc1n[nH]c(-c2ccco2)n1 | 1.5 | 0.11
77 | Cc1ccc(NC(=O)CN2C(=O)S/C(=C\c3ccccn3)C2=O)cc1C | 1.9 | 1.9
78 | O=C(O)c1ccccc1NCc1ccsc1 | 1.2 | 0.05
79 | CCN1CCN(CCC(=O)Nc2ccccc2)CC1 | 0.05 | -1.3
80 | CCOC(=O)c1ccccc1NC(=O)C1CCCO1 (stereo not given) | 0.15 | -0.13
81 | Cc1ccc(-c2ccc(=O)n(Cc3cc(C)ccc3C)n2)cc1 | 0.01 | -1.4
82 | CCCCC(=O)Nc1ccc(C(=O)Nc2ccc(S(=O)(=O)Nc3ccc(C)cc3)cc2)cc1 | 1.1 | -0.92
83 | COc1ccccc1NS(=O)(=O)c1cccc(C(=O)N(C)Cc2cccs2)c1 | 0.76 | 0.84
84 | Cc1ccc(S(=O)(=O)N(C)C)cc1NC(=O)COC(=O)/C(=C/c1ccc(F)cc1)c1cccs1 | 0.22 | -0.74
85 | CS(=O)(=O)c1cnc2c(-c3ccc(F)cc3)cnn2c1N | 0.64 | 0.11
86 | COc1cccc(-c2csc(NC(=O)C3CC3)n2)c1 | 0.78 | -0.05
87 | O=c1cc(-c2ccccc2Cl)c2c([nH]1)CCC2 | 0.08 | 1.2
88 | CC(C)CCNC(=O)c1ccc(Cn2c(=S)[nH]c3ccccc3c2=O)cc1 | 0.73 | 0.95
89 | COc1ccc(C)cc1S(=O)(=O)N1CCN(C(=O)c2ncoc2-c2cccc(F)c2)CC1 | 0.11 | -1.2
90 | O=C(N/N=C/c1cc([N+](=O)[O-])ccc1O)c1cccc(N2CCCC2=O)c1 | 0.24 | 0.27
91 | CCCCNC(=O)C1C2C=CC3(CN(Cc4ccccc4Cl)C(=O)C13)O2 (stereo not given) | 0.03 | -0.47
92 | O=C(Nc1ccc2oc(-c3ccncc3)nc2c1)c1ccccc1 | 1 | 0.25
93 | Cc1cc(C)n(CC(=O)N/N=C/c2ccco2)n1 | 0.56 | 1.2
94 | CCCn1c(=NC(=O)c2ccco2)c(C(=O)OCC)cc2c(=O)n3ccccc3nc21 | 0.09 | -0.74
95 | Cc1ccc(NC(=O)CCc2c(C)nc3ncnn3c2C)cc1 | 0.02 | 0.96
96 | Cc1ccc(NC(=S)NCCN2CCOCC2)cc1 | 0.55 | 2.5
97 | Cn1nc(-c2ccccc2)c(C(=O)NC(C(=O)O)c2ccccc2)c1Cl (stereo not given) | 0.26 | -0.38
98 | CNc1c(NS(=O)(=O)c2ccc3c(c2)CCCC3)c(=O)oc2ccccc12 | 0.15 | 0.63
99 | CCCCc1nc2cc(C(=O)N3CCC(OC)CC3)ccc2o1 | 1.1 | 0.56
100 | O=C(C1CCN(Cc2cc(Cl)ccc2O)CC1)N1CCN(Cc2ccccc2)CC1 | 0.17 | 0.06
101 | CCCCOCCCNCC(=O)Nc1ccc(S(N)(=O)=O)cc1 | 0.17 | 1
102 | Cc1ccsc1/C=N/NC(=O)c1ccc([N+](=O)[O-])cc1 | 0.32 | -0.07
103 | CCOC(=O)c1sc(NC(=O)Nc2ccccc2Cl)cc1C | 0.69 | -0.43
104 | COc1ccccc1/C=C1\SC(N2CCC(C)CC2)=NC1=O | 0.88 | 1.1
105 | Cn1c(N)c(C(=O)c2ccccc2)c(=O)n(C)c1=O | 1.1 | -2.1
106 | COc1ccc(C(=O)c2c(O)cc(-c3ccc(OC)cc3)oc2=O)cc1 | 0.11 | -0.17
107 | Cn1/c(=N/NC(=O)c2ccccc2F)sc2ccccc21 | 4.9 | -1.4
108 | CCOC(=O)Cc1csc(NS(=O)(=O)c2ccc(C(F)(F)F)cc2)n1 | 0.61 | 1.2
109 | C=CCOc1ccc(/C=C(\C#N)C(=O)Nc2ccccn2)cc1 | 1.1 | 0
110 | COc1cc(/C=N/NC(=O)CC#N)ccc1Oc1nc(Cl)ncc1F | 1.3 | -1.6
111 | Cc1ccc(/C=C(\C#N)C(=O)Nc2cccc3ncccc23)o1 | 1.8 | 0.14
112 | O=C(COc1ccc2ccccc2c1)NN1C(=O)c2ccccc2C1=O | 2.6 | 1.4
113 | COCCNC(=O)CSc1cc(=O)n(C)c2cc(Cl)ccc12 | 0.03 | -0.54
114 | COc1cc2c(cc1OC)C(c1cccc([N+](=O)[O-])c1)=NCC2 | 0.53 | 0.68

Compound profiles, as listed above. Values in the order: KCNQ2 enhance | KCNQ2 enhance baseline
`CCCCNC(=O)C1C2C=CC3(CN(Cc4ccccc4Cl)C(=O)C13)O2` (stereo not given) as listed: 0.03 | -0.47
`COc1ccc(OC)c(S(=O)(=O)N2C(C)CCCC2C)c1` (stereo not given) as listed: 0.58 | -1.6
`Cc1ccc(NC(=O)CN2C(=O)S/C(=C\c3ccccn3)C2=O)cc1C` as listed: 1.9 | 1.9
`CCOCCCN(C)C1CCN(C(=O)c2oc3ccccc3c2NC(=O)c2ccc([N+](=O)[O-])cc2)CC1` as listed: 1.5 | 1.8
`Cn1nc(-c2ccccc2)c(C(=O)NC(C(=O)O)c2ccccc2)c1Cl` (stereo not given) as listed: 0.26 | -0.38
